# From PubChem BioAssay
# CapD inh – Bacillus anthracis CapD inhibitors, primary screen, biochemical, fluorescence intensity; purified CapD enzyme, fluorescence intensity read-out; hits give low values; some hits fall short of the stated cut; z-score (concentration not given with the values); hit rate 0.23% among 140,000; AID 492967, 2010;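 active means z-score under -4 in either of two replicates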;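 further: stock transfer was 100 nL into about 40 µL; score is relative to mean and spread of the plate; one replicate is shown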
# AID504770 – growth inhibition of E. coli YBA685, primary screen, V. cholerae RctB inhibitors | hit rate 0.27% among 130,000 | AID 504770, 2011 | E. coli YBA685 rctB-dependent plasmid, OD600 growth, 3 h; hits give low values | z-score (test concentration not listed);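 active means z-score under -2 on both plates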;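 further: wells of about 30 µL received 100 nL stock; score is relative to mean and SD of the test wells; the first replicate is given; strong numbers were not always called active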
# Active calls of the source: *; nt = no result given; & = joins results of further samples. No enrichment for hits; overall some 0.37% were active at least once.
canonical_smiles | CapD inh | AID504770
O=C1Cc2ccccc2C(=O)N1c1ccccc1 | 0.045 | 1.2
COc1ccc(-n2nc(C(=O)NCC3CCCO3)c3ccccc3c2=O)c(OC)c1 (centres undefined) | -0.19 | nt
CC(=O)N(C)Cc1nc2ccccc2n1Cc1ccccc1 | 0.45 | -1
COc1ccc(C2C(C(=O)c3ccccc3)N3c4ccccc4C=CC3C2(C#N)C#N)cc1OC (centres undefined) | -0.19 | nt
COc1ccc(NCN2C(=O)c3ccccc3C2=O)cc1 | -0.11 | 0.95
CCOC(=O)C1=C(N)SC(C(=O)c2ccccc2)C1c1ccccc1 (centres undefined) | -0.27 | nt
CC(=O)OC1CC(C)N(C(=O)c2ccccc2)c2ccc(C)cc21 (centres undefined) | nt | 0.3
N#Cc1ccc(NC(=O)Cc2ccc3c(c2)OCCO3)cc1 | nt | -0.85
OCCCCNC1CCCCC1 | nt | -1.1
Cc1ccc(NC(=O)/C(C#N)=C/c2ccc[nH]2)c(C)c1 | 0.29 | 0.05
NC(Cc1ccccc1)c1ccc2c(c1)OCCO2 (centres undefined) | 7.3 | -1.1
CCOC(=O)C1=C(C)NC(=O)NC1C (centres undefined) | 0.11&-0.035 | -0.7&-0.6
COc1cc(OC)nc(C2CCN(S(=O)(=O)c3ccc(NC(C)=O)cc3)CC2)n1 | -0.24 | nt
Cc1cccn2c(=O)c(/C=C3\SC(=S)N(C(C)c4ccccc4)C3=O)c(N3CCN(C)CC3)nc12 (centres undefined) | -0.02 | nt
O=C(Nc1cccc(-c2nc3ccccc3[nH]2)c1)c1cccc(NC(=O)c2ccco2)c1 | 1.6 | -0.85
O=C1/C(=C/c2ccc(C(F)(F)F)cc2)Cc2ccccc21 | -0.22 | nt
CN(Cc1cccnc1)C(=O)CNS(=O)(=O)c1cccc(C(F)(F)F)c1 | nt | -0.5
O=S(=O)(Nc1ccc(-c2nc3cccnc3s2)cc1)c1ccccc1 | 0.08 | 1.2
COc1cc(C=C(C#N)C#N)ccc1O | -4.3* | -0.15
CCOC(=O)c1[nH]c2ccc(OC)cc2c1C(SCC(=O)O)c1ccc(C(F)(F)F)cc1 (centres undefined) | 12 | 0.1

canonical_smiles | CapD inh | AID504770
CS(=O)(=NS(=O)(=O)c1ccc(-c2ccccn2)s1)c1ccccc1 (centres undefined) | 0.68 | 0.7
Cn1cnc(-n2oo2)c1C#N | -0.28 | -0.55
Cc1ccc(C2=Nc3ccccc3SC(c3ccc(Br)cc3)C2)cc1 (centres undefined) | 0.14 | nt
OC1CCC(C2CC3CCC2C3)CC1O (centres undefined) | 0.36 | 0.5
CN(C)C(CN)Cc1ccccc1 (centres undefined) | nt | -0.05
CCOC(=O)c1c(C)sc2c1Nc1cc(Cl)ccc1S2 | 2.8 | -0.9
Cc1ccc2c(c1)C(c1ccc(F)cc1)N(C(=O)c1ccc(Br)o1)CC(=O)N2 (centres undefined) | -0.77 | 1.4
CCOC(=O)c1ccccc1NC(=O)c1sc2ncn(CC(=O)Nc3cccc(C(F)(F)F)c3)c(=O)c2c1C | -0.85 | nt
CC(C)CCSc1nc2ccccc2n1CN1CCN(S(=O)(=O)c2ccc(Cl)cc2)CC1 | nt | -0.15
O=C1c2ccccc2S(=O)(=O)N1CC(O)COc1ccc2ccccc2c1 (centres undefined) | -0.35 | nt
Oc1ccc(C2(c3ccc(O)cc3)CCCC2)cc1 | -2.3 | -0.2
Cc1cc(N)n(-c2ccccc2C(=O)O)n1 | -0.42 | 0.8
CSc1nc(Sc2ccccc2)cc(N2CCCc3ccccc32)n1 | 0.18 | nt
O=C(Nc1ccccc1)NC1CC2CCC(C1)N2Cc1nnnn1Cc1ccc2c(c1)OCO2 (centres undefined) | nt | -0.2
Cc1sc2nc(C(C)Sc3nnc(-c4ccc5c(c4)OCO5)o3)[nH]c(=O)c2c1C (centres undefined) | nt | 0.05
CCC(=O)N(c1ccccc1)C1C=CS(=O)(=O)C1 (centres undefined) | -0.55 | -0.7
C=CCN(C(=O)c1ccc2c(c1)nnn2C)c1ccccc1 | nt | -1.2
O=C(CC(=O)NCc1ccccc1)NCc1ccccc1 | nt | -0.25
CC1CCc2cc(F)ccc2N1S(=O)(=O)c1ccc(NC(=O)COCC(=O)O)cc1 (centres undefined) | -0.11 | 1.6
N#CCSc1ccccc1NC(=O)CN1CCc2sccc2C1c1cccs1 (centres undefined) | nt | -0.45

canonical_smiles | CapD inh | AID504770
CC1(C)c2ccccc2-n2c1cc(O)c(Cc1ccccc1)c2=O | 2.2 | 0.2
C/C=C/c1c(F)c(F)c(Oc2ccccc2N)c(F)c1F | nt | -0.1
CCOC(=O)c1ccc(Cn2c3cc([N+](=O)[O-])ccc3c3nn4cc(-c5cc(C(C)(C)C)cc6c5CCC6(C)C)nc4nc32)o1 | -0.25 | nt
CN(C)CCn1cc(C(=O)c2cc(F)ccc2O)cc1-c1nc2ccccc2c(=O)[nH]1 | nt | 0.95
COC(=O)c1ccccc1S(=O)(=O)/C(C#N)=C/Nc1nc(C)cc(C)n1 | 0.15 | 1
O=C1NCC(O)=C1C=Nc1ccccc1O | 1.1 | -0.05
O=C(Nc1ccc2c(c1)OCCO2)c1ccc(Br)o1 | -0.09 | -0.65
CCOc1cc(-c2nc(-c3cc4cc(C)ccc4nc3OC)no2)cc(OCC)c1OCC | -0.43 | 0.6
O=S(=O)(c1cc(Cl)sc1Cl)N1CCOCC1 | -0.32 | -0.9
CC(C)(Oc1ccc(Cl)cc1)C(N)=O | 0.085 | nt
CC(N)c1ccccc1OC(F)F (centres undefined) | nt | -0.95
COc1ccc(S(=O)(=O)N2CCC(C(=O)Nc3ccccc3C(F)(F)F)CC2)cc1C | -0.065 | 2
CCOc1ccc(S(=O)(=O)N2CCN(C(=O)CNC(=O)c3cccs3)CC2)cc1 | nt | -0.25
COc1cccc(CNC(=O)[C@@H](NS(=O)(=O)c2ccccc2)C(C)C)c1 | nt | -2.3
COc1ccc2nc(SCC(=O)Nc3ccc(NC(C)=O)cc3)n(S(=O)(=O)c3ccc(Br)cc3)c2c1 | -0.69 | nt
CCn1c(C)c(CCC(=O)N2CCCCCC2)c(=O)n2nc(-c3ccccc3OC)cc12 | 30 | -0.85
CC1(C)CC(=O)c2cc3c(N)c(C(=O)c4ccc([N+](=O)[O-])cc4)sc3nc2C1 | -0.56 | nt
COc1ccc2oc(C(=O)OCC(=O)c3ccc(F)cc3)c(C)c2c1 | nt | 0.95
O=C(CN1C(=O)/C(=C/c2cccc(Br)c2)SC1=S)Nc1ccccc1C(F)(F)F | -0.54 | -1
c1ccc(NC2=NCCCS2)cc1 | 0.32 | 0

canonical_smiles | CapD inh | AID504770
CCCC(=O)Nc1c2c(nn1-c1ccccc1)CSC2 | nt | -0.3
COC(=O)CN1C(c2cccc(Cl)c2)=Nc2ccc(Br)cc2C1c1ccccc1 (centres undefined) | -0.33 | nt
COC(=O)c1cc(S(=O)(=O)Nc2ccc(OC)cc2)c[nH]1 | -0.57 | -0.55
CN(CC(=O)NCc1ccco1)S(=O)(=O)c1ccc2c(c1)c(=O)n(C)c(=O)n2C | 1.3 | 0.9
CC(=O)Nc1ccc(NC(=O)c2ccco2)cc1 | 0.43 | -0.5
Cc1cc(Cl)ccc1OCC(=O)N/N=C/c1ccc([N+](=O)[O-])cc1 | -0.82 | nt
Cc1ccc(C(=O)NCCc2ccccc2)cc1 | 0.18 | -0.25
CC1=C(C(=O)Nc2ccccc2C)C(c2ccco2)C(C#N)=C(SCC(=O)c2ccccc2)N1 (centres undefined) | -0.65 | 1.5
CCC(CC)C(=O)Nc1nnc(C(C)(C)C)s1 | nt | 1.6
O=C1CCC(C(=O)OCC(=O)Nc2cccc(Oc3ccccc3)c2)=NN1 | nt | 0.85
Cc1c(Cl)cccc1NC(=S)Nc1ccc(Cl)cc1C(=O)c1ccccc1 | 0.5 | nt
Cn1nnnc1SCC(=O)N1CCNC1=O | nt | 0.75
O=C(Nc1ccc2nc(NC(=O)c3ccccc3)sc2c1)c1ccccc1 | 4.2 | nt
CCOC(=O)COc1ccc(/C=C2\C(=O)NC(=O)N(c3cc(C)cc(C)c3)C2=O)cc1OC | 0.56 | nt
O=C(NCCc1ccc(O)cc1)OCc1c(F)cccc1Cl | -0.96 | nt
CCOc1ccc(-n2c(CN(CC)CC)nc3ccccc3c2=O)cc1 | -1.4 | 2.8
Cc1c(C)n(CC(O)CN2CCCCC2C)c2ccccc12 (centres undefined) | -0.1 | 0.05
COC(=O)/C=C1/NCCNC1=O | -1.9 | 0.5
Nc1nnc(CCN2CCCC2)s1 | nt | -0.75
O=C(Cc1c[nH]c2ccccc12)NCC1CCN(c2ccc(S(=O)(=O)N3CCCC3)cc2)CC1 | nt | 0.2

canonical_smiles | CapD inh | AID504770
O=C(Cn1c(C(=O)OCCO)cc2ccccc21)c1ccccc1 | nt | -0.15
CCOc1ccc(C(=O)NCC(=O)NCC2CCCCC2)cc1OCC | nt | 0.55
Cc1ncc([N+](=O)[O-])n1S(=O)(=O)c1ccc(F)cc1 | -0.2 | nt
COC(=O)c1ccc(-c2nc(-c3cc(C)nc4ccccc34)no2)cc1 | 0.18 | -0.4
O=C(CC(SCc1ccco1)c1ccc(C(F)(F)F)cc1)c1cccs1 (centres undefined) | -0.53 | nt
CN1C(=O)/C(=C\c2ccccc2C(F)(F)F)SC1=S | -0.34 | 0.65
O=C(c1cccc(COc2ccccc2Cl)c1)N1CCCCC1 | -0.82 | 0.55
Oc1cccc(-c2nc3ccccc3[nH]2)c1 | 7.6 | -0.95
O=S(=O)(Nc1ccc(N2CCOCC2)cc1)c1ccc(Cl)cc1 | -0.69 | nt
CN(C)c1cccc(C(=O)N2CCOCC2)c1 | -0.29 | -0.65
Cc1cccc(OC(=O)Nc2ccccc2)c1 | 0.93 | -0.75
Cc1ccn2nc(C(=O)OCc3cc(=O)oc4cc5c(cc34)CCC5)nc2n1 | nt | -0.45
Cc1ccccc1-n1nnnc1SCC(=O)N(Cc1cccs1)c1ccc2c(c1)OCCO2 | nt | 0.15
Cc1ccc(Nc2nc3nonc3n3c(CC(N)=O)nnc23)cc1 | -0.79 | nt
CCc1cccc(OCC(=O)O)c1 | 0.2 | 1.1
Cc1cccc(CCOC(=O)NC(Cc2c[nH]c3ccccc23)C(=O)OCc2ccccc2)c1 (centres undefined) | -0.045 | nt
CN(Cc1ccccc1)Cn1c(=S)oc2ccc(Cl)cc21 | nt | -0.1
CCNc1nc(Sc2ccc(Cl)cc2Cl)cc(C(F)(F)F)n1 | 0.93 | nt
CCOc1ccc(NC2=CC(c3ccc(C(C)(C)C)cc3)N(c3ccc(OCC)cc3)C2=O)cc1 (centres undefined) | -0.29 | nt
Cc1nn(-c2ccccc2)nc1C(N)=O | 0.18 | nt

canonical_smiles | CapD inh | AID504770
CN(CCOC(=O)Cn1cnc2ccccc2c1=O)C1=NS(=O)(=O)c2ccccc21 | -0.35 | nt
CC1=CC(=C(C#N)C#N)C=C(C)N1c1ccc(I)cc1 | nt | 1.3
COC(=O)c1ccc(COC(=O)c2cccnc2N)o1 | nt | -0.5
CNC1(C#N)CCCCC1 | nt | -0.4
O=C(O)c1cccc2cccc(Br)c12 | -0.48 | nt
Cc1cc(C)nc(SCC(=O)OCc2cccc(S(=O)(=O)N3CCOCC3)c2)n1 | nt | 0.35
Cc1onc(-c2ccccc2Cl)c1C(=O)NC(=S)Nc1ccc(C(C)(C)C)cc1 | -0.32 | nt
O=C(O)c1cnc(-c2ccccc2)nc1N1CCc2[nH]ncc2C1 | -0.96 | -0.35
C/C(=C\c1nsc(Nc2ccc(F)c(Cl)c2)n1)N1CCC(C)CC1 | 0.24 | nt
Cc1occc1C(=O)Nc1cnn(CCCC(=O)O)c1 | -0.06 | 0.8
O=C(CSc1nc2c(cnn2-c2ccccc2)c(=O)[nH]1)c1ccc(Cl)cc1 | -0.17 | nt
CC(=O)OC(CC(=O)O)Cc1nc2ccccc2s1 (centres undefined) | nt | 0.3
Cc1ccc(-c2csc(=N)n2-c2ccccc2)cc1 | 0.51 | -0.3
O=C1OC2CC3CC(C2)CC1C3 | 0.095 | -0.15
CC1(C)CC(=O)C(C=NCCC(=O)O)=C(O)C1 | nt | 1.5
COc1ccc(NC(=O)CSc2nc(C)c(C)c(=O)[nH]2)cc1OC | nt | -0.25
N#Cc1c(-c2ccc3c(c2)OCO3)cc(-c2ccccc2O)[nH]c1=O | -0.42 | -1.2
CC(=O)NCc1ccc(C(=O)CSc2nc3ccccc3c(=O)n2-c2ccc(Cl)cc2)o1 | nt | -0.2
S=c1[nH]nc(C2CCCCC2)n1N=Cc1ccncc1 | -0.72 | -0.3
CN1C(=O)/C(=C/c2c(N3CCSCC3)nc3ccccn3c2=O)SC1=S | nt | 0.6
NNC(=O)CN1C(c2ccc(Cl)cc2)=Nc2ccc(Br)cc2C1c1ccccc1 (centres undefined) | -0.14 | nt
CC/C(=N\NC(N)=O)c1cc(F)ccc1O | nt | 0.65

# Of the compounds above, these have a CF3 group:
canonical_smiles | CapD inh | AID504770
O=C1/C(=C/c2ccc(C(F)(F)F)cc2)Cc2ccccc21 | -0.22 | nt
CN(Cc1cccnc1)C(=O)CNS(=O)(=O)c1cccc(C(F)(F)F)c1 | nt | -0.5
CCOC(=O)c1[nH]c2ccc(OC)cc2c1C(SCC(=O)O)c1ccc(C(F)(F)F)cc1 (centres undefined) | 12 | 0.1
CCOC(=O)c1ccccc1NC(=O)c1sc2ncn(CC(=O)Nc3cccc(C(F)(F)F)c3)c(=O)c2c1C | -0.85 | nt
COc1ccc(S(=O)(=O)N2CCC(C(=O)Nc3ccccc3C(F)(F)F)CC2)cc1C | -0.065 | 2
O=C(CN1C(=O)/C(=C/c2cccc(Br)c2)SC1=S)Nc1ccccc1C(F)(F)F | -0.54 | -1
O=C(CC(SCc1ccco1)c1ccc(C(F)(F)F)cc1)c1cccs1 (centres undefined) | -0.53 | nt
CN1C(=O)/C(=C\c2ccccc2C(F)(F)F)SC1=S | -0.34 | 0.65
CCNc1nc(Sc2ccc(Cl)cc2Cl)cc(C(F)(F)F)n1 | 0.93 | nt
